Vaccinia mCherry: qHTS for Stage-Specific Inhibitors of Vaccinia Orthopoxvirus: mCherry Reporter Primary qHTS | Vaccinia virus mCherry reporter infection, fluorescence; about a quarter of the inactives have no number | Potency, µM (highest dose often 36.5 µM), without a hit: at the top dose activity change, negative = inhibition, usual class: inhibitors | 310,000 compounds, 0.63% hits | AID 720579, 2013; active = well fitted inhibition curve with a large enough effect; inconclusive = small, poorly fitted or top-dose-only effect; inactive = no such curve, though single readings can be large or run the other way; tested in A549 cells; also: nearly all actives have a fitted effect of over 35% in size; inactives centre near -10
VACV Venus inh: qHTS for Stage-Specific Inhibitors of Vaccinia Orthopoxvirus: Venus Reporter Primary qHTS. Potency, µM (series often up to 36.5 µM), for the others: top-dose activity change, negative = inhibition, hits mostly inhibitors. Vaccinia virus Venus reporter expression, fluorescence. 330,000 compounds, 0.46% hits. AID 720580, 2013; active means well fitted inhibition curve with a large enough effect; inconclusive means small, poorly fitted or top-dose-only effect; inactive means no such curve, though single readings can be large or run the other way; tested in A549 cells; also: nearly all actives have a fitted effect of over 30% in size; inactives centre near -10
Numbers without * were called inactive; i = inactive; u = inconclusive; x = no result given; [ ] = remark or other dose. % is scaled to controls: 0 for no effect and ±100 for the full control effect; potency is read from the fitted curve at half-maximal effect. Outcome played no part in choosing rows; overall some 0.87% were active at least once.

SMILES	Vaccinia mCherry	VACV Venus inh
Cc1cc(C)c(C#N)c(SCS(=O)c2ccc(C(C)(C)C)cc2)n1 (stereo unspecified)	-28%	-20%
CCn1c(N)c(C(=O)NC)sc1=S	-8%	4%
CC(=O)Nc1ccc(S(=O)(=O)NCC(=O)NNC(=O)c2csc(N3CCOCC3)n2)cc1	i	-2%
COc1cc(NC(=O)CSc2ccccc2)c(C(=O)O)cc1OC	-18%	-14%
O=C(Nc1ccon1)c1nc[nH]c1C(=O)N1CCc2ccccc2C1	-18%	-5%
CCCOc1ccc(CN(CCC#N)C(=S)NC(=O)c2ccccc2)cc1	u	-23%
CC(=O)N1CCN(c2ccc(C(N)=O)cc2[N+](=O)[O-])CC1	0%	-12%
CC1(C)OC(=O)C(=CNc2ccccc2)C(=O)O1	-11%	-7%
O=C(COC(=O)c1ccc(S(=O)(=O)N2CCCC2)cc1)Nc1ccccc1	-2%	-2%
CCOc1cc(Br)c(COc2ccc(C)nc2[N+](=O)[O-])cc1OCC	-15%	4%
N#Cc1c(Nc2cccc(F)c2)sc(C(=O)c2ccc(Cl)cc2)c1N	-1%	2%
COc1ccc2cc(C(=O)C3CCCN(C(=O)CSc4nnc(C)o4)C3)ccc2c1 (stereo unspecified)	i	-21%
CCCS(=O)(=O)N1CCC(N2CCN(Cc3ccc(C)cc3)C(=O)C2=O)CC1	-6%	-6%
COC(=O)c1cc(Cl)nc2ccccc12	i	-14%
Cc1ccc(NC(=O)CSCc2c(C)noc2C)cc1C	-23%	-10%
OCCC1CN(Cc2cnc(-c3ccccc3)s2)CCN1C1CCCC1 (stereo unspecified)	i	-17%
Cc1ccc(CC(=O)NNC(=O)c2cccs2)cc1C	-6%	-3%
COc1ccc(C(=O)Nc2ccc(NC(=O)C3CC3)cn2)cc1	61%[activator]	-3%
CC1CCCC(NS(=O)(=O)c2cc(Br)cnc2N)C1C (stereo unspecified)	u	u
COc1cc(C(C(=O)NC2CCCC2)N(Cc2ccco2)C(=O)c2snc(C(N)=O)c2N)cc(OC)c1OC (stereo unspecified)	-25%	-22%
COc1ccc(-c2sc3ccc(N4CCOCC4)cc3c2-c2ccc(O)cc2)cc1	-9%	-13%
O=C(Nc1ccc(NC(=O)c2ccco2)cc1)c1ccc2c(c1)OCCO2	-1%	-8%
Cc1ccc2[nH]c(=O)c3cc(C(=O)NCCCN4CCC(C)CC4)sc3c2c1	-4%	-12%
CN(C)c1nc(=NCc2cccs2)ss1	i	-2%
O=[N+]([O-])c1ccc(Cl)c(/C=N/N2CCN(Cc3ccccc3Cl)CC2)c1	x	-14%
CCOC(=O)CC(=O)CSc1nc2nc(C)cc(C)n2n1	-7%	-18%
CCOc1ccc(NC(=O)C2C(c3ccccc3)C2(Cl)Cl)cc1 (stereo unspecified)	-10%	-29%
CCCCOc1ccc(-c2cc3c(=O)n(CC(=O)Nc4ccc(Cl)cc4Cl)ccn3n2)cc1	-4%	-10%
CCCn1c(=O)n(-c2ccccc2)c(=O)c2sc3ccccc3c21	-10%	-9%
Cc1ccc(-c2nnc3c4ccccc4c(C)nn23)cc1NC(=O)c1cccc(Br)c1	-9%	-12%

Quoted at random: three entries already listed.
SMILES	Vaccinia mCherry	VACV Venus inh
O=C(COC(=O)c1ccc(S(=O)(=O)N2CCCC2)cc1)Nc1ccccc1	-2%	-2%
Cc1ccc2[nH]c(=O)c3cc(C(=O)NCCCN4CCC(C)CC4)sc3c2c1	-4%	-12%
O=C(Nc1ccc(NC(=O)c2ccco2)cc1)c1ccc2c(c1)OCCO2	-1%	-8%

Compound profiles, from the list above. Order of values: Vaccinia mCherry	VACV Venus inh
`CCCOc1ccc(CN(CCC#N)C(=S)NC(=O)c2ccccc2)cc1` is entered as u	-23%
`OCCC1CN(Cc2cnc(-c3ccccc3)s2)CCN1C1CCCC1` (stereo unspecified) is entered as i	-17%
`CCOc1ccc(NC(=O)C2C(c3ccccc3)C2(Cl)Cl)cc1` (stereo unspecified) is entered as -10%	-29%
`CCCCOc1ccc(-c2cc3c(=O)n(CC(=O)Nc4ccc(Cl)cc4Cl)ccn3n2)cc1` is entered as -4%	-10%
`CC(=O)N1CCN(c2ccc(C(N)=O)cc2[N+](=O)[O-])CC1` is entered as 0%	-12%

(listing goes on)
SMILES	Vaccinia mCherry	VACV Venus inh
O=C1c2ccccc2C(=O)N1CCC(=O)N1CCCc2ccccc21	x	0%
COc1ccc(NC(=O)c2ccco2)cc1NC(=O)c1ccc(C#N)cc1F	-9%	1%
Cc1ccc(CN2CCCn3nc(C(=O)NC(C)C)cc3C2=O)cc1	-19%	3%
COc1cccc(C(=O)NC(=O)Nc2cc(C)on2)c1	-9%	-6%
C=CC[C@H](CC(=O)OC(C)(C)C)C(=O)OC[C@H]1CCCN1C(=O)[C@@H](CC=C)CC(=O)N(CCO)Cc1ccccc1	i	-28%
O=C(C(=O)N1CCN(c2ccccc2F)CC1)c1c[nH]c2ccccc12	-10%	-14%
CCCCC[n+]1ccn(-c2nc3ccccc3nc2[N-]S(=O)(=O)c2ccccc2)c1	-7%	-20%
Cc1cccc(NC(=S)N/N=C/c2cccc([N+](=O)[O-])c2)c1	-9%	-1%
Cc1noc(C)c1COC(=O)COc1cccc2c1OC(C)(C)C2	x	-15%
O=C(CN1C(=O)NC2(CCCC2)C1=O)Nc1nc(-c2ccccc2)cs1	-14%	-16%
COc1cc(Cl)c(C)cc1NC(=O)c1ccc(NS(=O)(=O)c2ccc(F)c(F)c2)cc1	i	-11%
C/C(=N\NC(=S)NCc1ccccc1)c1cccc(Br)c1	-15%	-23%
Cc1ccc(NC(=O)CN2C(=O)C(C)(C)c3cc(S(=O)(=O)N4CCCCC4)ccc32)c(Br)c1	-6%	-11%
CCOc1cccc(C(=O)Nc2ccc3oc(-c4cccnc4)nc3c2)c1	-11%	-21%
O=C(COc1ccc(Br)cc1)Nc1ccc(NC(=O)c2ccccc2)cc1	i	-13%
CCOc1ccccc1/C=C(/NC(=O)c1ccccc1)C(=O)N(CC)CC	i	-21%
COc1ccc([N+](=O)[O-])cc1NC(=O)C(C)OC(=O)C1CCC1 (stereo unspecified)	-16%	-9%
Cc1ccc(C)c(S(=O)(=O)N2CCN(C(=O)Cc3ccsc3)CC2)c1	-9%	-19%
COC(=O)CC1[C@@]2(C)C[C@@]34OC5(C)OC6(CC[C@@]7(C)C(c8ccoc8)OC(=O)C(C(C)=O)C7[C@]6(O5)C(O)[C@@]3(O)C2O)[C@]14C (stereo partly specified)	11%	21%
COc1cc2c(cc1[N+](=O)[O-])-c1ccccc1C2	-1%	-2%
CCOC(=O)/C(C#N)=C1\CC2CCC1(C)C2(C)C (stereo unspecified)	-12%	-24%
FC(F)(F)c1cccc(CN2CCC(c3cc(-c4cccs4)n[nH]3)CC2)c1	u	u
COc1ccc(C2CC(c3cccs3)=NN2C(=O)c2ccco2)cc1OC (stereo unspecified)	-2%	-3%
COc1ccc(C(C[N+](=O)[O-])c2c(C)cc3ccccn23)cc1 (stereo unspecified)	-22%	-8%
CC(=O)OCC(=O)C1(O)CCC2C3CCC4=CC(=O)CCC4(C)C3(Cl)C(O)CC21C (stereo unspecified)	-14%	-20%
CCOC(=O)c1ccc(Nc2nnc(C(C)(C)C)c(=O)[nH]2)cc1	u	u
Cc1cc(NC(=O)COC(=O)C2CSC3(C)CCC(=O)N23)ccc1Br (stereo unspecified)	-5%	-16%
CCOC(=O)c1ccc(NC(=O)CCCc2nc(-c3cc(OC)c(OC)c(OC)c3)no2)cc1	6%	-6%
O=C(Cn1[nH]c(=O)c2ccccc2c1=O)OCC(=O)N(Cc1ccccc1)Cc1ccccc1	x	-21%
O=c1[nH]c(CS(=O)(=O)c2ccccc2)nc2ccccc12	x	-10%

Look-ups from the entries so far:
VACV Venus inh result of Cc1noc(C)c1COC(=O)COc1cccc2c1OC(C)(C)C2 stands at -15%
VACV Venus inh result of COc1ccc(C2CC(c3cccs3)=NN2C(=O)c2ccco2)cc1OC (stereo unspecified) stands at -3%
VACV Venus inh result of CCCCC[n+]1ccn(-c2nc3ccccc3nc2[N-]S(=O)(=O)c2ccccc2)c1 stands at -20%
Vaccinia mCherry result of CC(=O)OCC(=O)C1(O)CCC2C3CCC4=CC(=O)CCC4(C)C3(Cl)C(O)CC21C (stereo unspecified) stands at -14%
VACV Venus inh result of O=c1[nH]c(CS(=O)(=O)c2ccccc2)nc2ccccc12 stands at -10%
VACV Venus inh result of CCOc1cccc(C(=O)Nc2ccc3oc(-c4cccnc4)nc3c2)c1 stands at -21%

The listing continues.
SMILES	Vaccinia mCherry	VACV Venus inh
CNc1ccc2nnc(C(F)(F)C(F)(F)C(F)(F)F)n2n1	-9%	0%
CN(C)S(=O)(=O)c1ccc(NC(=O)Cc2ccc(S(=O)(=O)N3CCOCC3)s2)cc1	i	-8%
COCCNC(=S)Nc1ccc(Cl)c(Cl)c1	-2%	-1%
CC1CN(C(=O)COC(=O)c2ccc(O)cc2)CC(C)O1 (stereo unspecified)	-1%	-9%
CN=C(Nc1ccccc1OC)SC1CC(=O)N(c2ccc(C(=O)OC)cc2)C1=O (stereo unspecified)	i	-1%
O=C(C1CC(=O)N(c2ccc(Cl)cc2)C1)N1CCC(c2nc3ccccc3[nH]2)CC1 (stereo unspecified)	-14%	-29%
Cn1cnc([N+](=O)[O-])c1S(=O)(=O)c1ccc(Cl)cc1	i	0%
Cc1csc(N)n1	i	-10%
COc1cc(-c2c(OC)cccc2OC)cc2c1OCCN(Cc1cn[nH]c1-c1ccc(Cl)cc1)C2	-4%	0%
Cc1cc(Cl)ccc1-c1nc(NCCN(C)C)nc2ccsc12	12%	-13%
CC(C)=CCCC(C)NC(=O)NC1CCCCC1 (stereo unspecified)	-12%[1.46 µM]	-17%
Cc1ccc(CCNC(=O)c2ccc3c(c2)nc2n3CCCCC2)cc1	-13%	-15%
CCN(CC)S(=O)(=O)c1cc(NC(=O)C2CCN(c3ncnc4sc(C)c(C)c34)CC2)ccc1Cl	u	u
COc1ccc2[nH]c(=O)c(CNc3ccc(C)c(C)c3)cc2c1	x	-6%
O=C1COc2ccccc2C(c2nc3ccccc3[nH]2)N1Cc1ccccc1 (stereo unspecified)	17%	9%
Cc1cc(C)c(S(=O)(=O)Nc2ccc(-c3ccc(N4CCCCC4)nn3)cc2)cc1C	-9%	-8%
O=C(C1CCCN(c2ncnc3c2nc2n3CCCCC2)C1)N1CCN(c2ccc(Cl)cc2)CC1 (stereo unspecified)	-17%	u
c1ccc(C[C@H]2CN=C(Nc3ccccc3)N2CCCC2CCCCC2)cc1	-9%	-8%
CC[C@H]1CC2CN3CCc4c([nH]c5ccccc45)C(C(=O)OC)(C2)C13 (stereo partly specified)	4%	13%
O=C(C[n+]1cccc2cc(Cl)ccc21)c1ccc2c(c1)CCCC2	24%	-14%
Cc1ccc2c(c1)NC(=O)c1cccnc1O2	-1%	-3%
CCN(CC)CC(C)OC(=O)c1ccccc1Cl (stereo unspecified)	i	-10%
O=C(c1cc(-c2cccs2)on1)N1CCCc2ccccc21	-27%	2%
CC(=O)Nc1ccccc1OCc1nnc(-c2cccs2)o1	-13%	-5%
O=C(NC(=S)Nc1nc(-c2ccccc2)cs1)c1cccnc1	u	-26%
Cn1c(=O)c2c(-c3ccccc3Br)n(Cc3ccccc3)cc2n(C)c1=O	-10%	4%
COCCN(CC(=O)Nc1cccc(C)c1C)C(=O)c1ccc(S(=O)(=O)N2CCOCC2)cc1	-9%	-10%
Cc1cccc(NC(=O)c2nc[nH]c2C(=O)NC2CCN(C(=O)OC(C)(C)C)CC2)c1	u	u
O=C(NCc1cccs1)N[C@@H](Cc1ccccc1)C(=O)O	-15%	-3%
Cc1ccc2c(Sc3ccc(Cl)cc3)c(C(=O)N3CCCCC3)[nH]c2c1	-16%	-4%
COc1ccccc1C(=O)Nc1nc(C)cc(C)n1	i[7.34 µM]	-1%[7.34 µM]

Part of the list above in order of SMILES length, falling.
SMILES	Vaccinia mCherry	VACV Venus inh
COc1cc(-c2c(OC)cccc2OC)cc2c1OCCN(Cc1cn[nH]c1-c1ccc(Cl)cc1)C2	-4%	0%
Cc1cccc(NC(=O)c2nc[nH]c2C(=O)NC2CCN(C(=O)OC(C)(C)C)CC2)c1	u	u
CNc1ccc2nnc(C(F)(F)C(F)(F)C(F)(F)F)n2n1	-9%	0%

High-throughput results deposited in PubChem by National Center for Advancing Translational Sciences (NCATS).
